Compound activity deposited in PubChem by several laboratories.
MT1-MMP act inh: MT1-MMP (human) activation inhibition. GFP/RFP ratio change, % at 20 µM. 0.061% of 360,000 active. P50281. HT1080 RFP-PRO-GFP cells, GFP/RFP ratio fluorescence, overnight; percent of plate control window, DMSO zero;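 active = GFP/RFP ratio change of at least 30% with cell ATP level not reduced by more than half and red fluorescence within 50% of control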; also: strong numbers were not always called active
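Test system: HT1080 RFP-PRO-GFP cells; Benchmarks: DMSO and RFP-L50D-GFP cell wells; Timing: cells overnight before dosing, compound overnight, 37 °C, 5% CO2; Compound: one 20 µM compound dose with 1% DMSO; Read-out: GFP/RFP fluorescence ratio.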
Rce1 inh: blocks yeast Ras-converting enzyme. Q03530. yeast membranes, quenched prenylated peptide cleavage fluorescence. calls only. 0.27% of 290,000 active. AID 2563;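 active = fall in fluorescence gain of 50% or more versus controls, with final raw signal at or below 3038400; inconclusive = same 50% fall but final raw signal above 3038400; inactive = fall in fluorescence gain under 50%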;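 also: plate controls were neutral control wells for no effect and wells lacking membranes for full effect; tested at 10 µM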
Target sequence (Q03530 whole entry, looked up): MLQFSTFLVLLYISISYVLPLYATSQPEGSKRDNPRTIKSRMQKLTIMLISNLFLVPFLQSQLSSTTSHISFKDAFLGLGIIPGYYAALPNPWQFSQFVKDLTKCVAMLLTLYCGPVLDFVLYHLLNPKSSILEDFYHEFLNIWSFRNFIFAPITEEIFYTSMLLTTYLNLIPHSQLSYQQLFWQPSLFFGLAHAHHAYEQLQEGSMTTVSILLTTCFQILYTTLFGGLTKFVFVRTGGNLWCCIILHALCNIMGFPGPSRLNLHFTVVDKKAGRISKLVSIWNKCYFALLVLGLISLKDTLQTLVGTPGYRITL
PABP polyA inh: PABP-poly(A) binding inhibition. PABP-poly(A) RNA binding, fluorescence polarization. inhibition, % at 35 µM. 1% of 290,000 active;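 active = 50% or more with normal probe brightness, or confirmed in later tests; inconclusive = above 50% with abnormal brightness, or retests that disagree; inactive = below 50% or failed in later tests; about a fifth of its hits are not listed in these tables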;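 also: calls also rest on retests at 20 µM and on dose response follow-up; controls were probe without protein and protein plus probe with vehicle; some compounds called inactive have numbers as strong as hits; many hits fall short of the cut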
CSC inhib: cancer stem cell inhibition | AID 2717 | cancer stem cell-like cells viability, luminescence | inhibition, % at 7.5 µM | 1.1% of 300,000 active;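 active = mean at 75% or more and at least half the replicates too; inconclusive = mean and replicates disagree; tested in HMLE shEcad cells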;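 also: 0% = median of negative and 100% = median of positive control wells; the first replicate is given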
Env fusion inh: blocks HIV Env-driven cell-cell fusion. HeLa-JRFL Env/CEM21 cell fusion, luciferase. inhibition, % at 12.3 µM. AID 651610. 1.1% of 360,000 active;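 active = mean replicate inhibition score of at least 50 and every replicate individually at or above 50; inconclusive = only one of the two criteria met; inactive = mean below 50 and not all replicates reaching 50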;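 also: 0% = plate neutral controls and 100% = maraviroc near 300 nM; one replicate is shown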
UUG fidelity: modulators of start codon recognition fidelity in yeast; 0.13% of 350,000 active; S. cerevisiae UUG-firefly luciferase reporter, luminescence/redox ratio; activity score, % at 18.7 µM;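 active = replicate mean at a twofold rise or more, about +100% in these data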;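 also: firefly luciferase made from a UUG start codon reports start codon fidelity; reporter light over untreated wells divided by growth signal over untreated wells; some hits fall short of that in this replicate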
eIF4H FP inh: inhibitors of RNA binding by human eIF4H; Q15056; eIF4H fluorescence polarization binding assay; inhibition, % at 35 µM; 0.94% of 290,000 active; AID 2012;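 active = 50% or more with normal probe brightness, or confirmed in later tests; inconclusive = above 50% with abnormal brightness, or retests that disagree; inactive = below 50% or failed in later tests; about a fifth of its hits are not listed in these tables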;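 also: calls also rest on retests at 20 µM and on dose response follow-up; 0% = protein and probe with vehicle and 100% = probe without protein; strong numbers were not always called active; many hits fall short of the cut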
MT1-MMP act inh RFP: also measured in MT1-MMP act inh; calls as there; RFP signal change, %; measured here: RFP expression control read;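 0 = vehicle wells; hits needed this value within 50% of zero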
* hit, by the source's call; i = inactive; ? = inconclusive; · = no result given.

SMILES	MT1-MMP act inh	MT1-MMP act inh RFP	Rce1 inh	PABP polyA inh	CSC inhib	Env fusion inh	UUG fidelity	eIF4H FP inh
COc1ccc(CCN(C)S(=O)(=O)c2ccc(Cl)nc2)cc1OC	4	0	i	4	9	11	-15	-6
CC1(C(=O)NS(=O)(=O)C2CC2)CCN(C(=O)c2cc(F)cc(F)c2)C1 (stereo not given)	-1	2	·	·	·	0	-2	·
CCc1cc(=O)oc2cc(C)cc(OCC(=O)NC3CCN(Cc4ccccc4)CC3)c12	-1	-2	i	-12	-13	-14	-13	-10
Cc1ccc(NS(=O)(=O)c2ccc(C(C)C)cc2)cc1S(=O)(=O)N1CCOCC1	9	-13	·	·	-17	·	-10	·
CC(C)C(=O)Nc1ccc(C(=O)N/N=C/C2CC3C=CC2C3)cc1 (stereo not given)	3	-1	·	-4	2	12	·	-7
CC(=O)c1cccc(NC(=S)Nc2ccn(Cc3cccc4ccccc34)n2)c1	1	-6	i	-2	-20	16	·	-2
Cc1cc(NC(=O)Cc2ccc(Br)cc2)no1	1	0	i	0	1	-41	-2	-1
CN(CC(=O)Nc1ccc(Cl)c(S(=O)(=O)N(C)C)c1)Cc1ccccc1	1	-3	i	0	-7	-24	-18	4
COc1ccc(-c2c(C)nn3c(Cl)c(C)c(C)nc23)cc1	1	0	i	-3	-6	6	-7	-13
O=c1[nH]c2c(s1)C(c1cccnc1)C1C3CCC(C3)C1S2 (stereo not given)	2	1	i	-5	0	·	·	-6
Cc1ccc(-n2nnc3c(=O)n(Cc4ccccc4C)cnc32)cc1	0	1	i	2	-5	-18	-22	-2
CCn1ccnc1[C@@H]1C[C@H]2CN(Cc3cccc(Cl)c3)C(=O)[C@]23CCCN13	-2	3	i	-5	-10	-9	-20	-3
C[C@H](NC(=O)c1ccco1)C(=O)N1CCN(c2ccc(C(F)(F)F)cn2)CC1	2	-4	·	·	-18	·	-4	·
O=C(Cc1ccc(F)cc1)Nc1cccc(-c2ccc3nncn3n2)c1	5	0	·	-4	-12	10	·	-3
Cc1ccc(-n2c3c(cc(C(=O)NCCCN4CCOCC4)c2=O)C(=O)CC(C)(C)C3)cc1	0	8	i	2	6	-15	-2	-5
CCC(Sc1nc2sc(C(=O)OC)c(C)c2c(=O)n1N)C(=O)NCC1CCCO1 (stereo not given)	6	0	i	0	·	21	-21	6
COc1ccc(N2CCN(C(=O)Nc3ccccc3Cl)CC2)cc1	-3	-2	i	1	1	17	·	3
Nc1ccc(-n2nncc2-c2ccco2)cc1	-2	0	i	2	-1	-9	-6	35
COc1ccc(NC(=O)c2cc(NC(=O)C3CCCCC3C(=O)O)ccc2N2CCOCC2)cc1 (stereo not given)	3	2	i	-7	-5	-3	7	-4
CCOC(=O)N1CCN(C(=O)CSc2nc3c(cnn3-c3ccc(Cl)cc3)c(=O)[nH]2)CC1	6	-3	i	-1	1	-15	-2	-7
COc1ccc(N=C2C=CC(=O)O2)cc1	2	4	·	·	·	-13	-8	·
O=C(CSc1ncn[nH]1)Nc1ccc(Br)cc1F	4	2	i	-6	-4	·	·	-4
CCOC(=O)c1csc(NC(=O)C(C)(C)C)n1	-3	-2	i	0	-17	-10	-11	5
COc1ccc(C(=O)NCC(=O)OCC(=O)NC(=O)c2ccc(C(C)(C)C)cc2)cc1OC	12	4	·	·	·	-8	21	·

In a second layout: 19 of the compounds above.
Screens in order: MT1-MMP act inh, MT1-MMP act inh RFP, Rce1 inh, PABP polyA inh, CSC inhib, Env fusion inh, UUG fidelity, eIF4H FP inh
Cc1ccc(NS(=O)(=O)c2ccc(C(C)C)cc2)cc1S(=O)(=O)N1CCOCC1
    9, -13, ·, ·, -17, ·, -10, ·
CC(C)C(=O)Nc1ccc(C(=O)N/N=C/C2CC3C=CC2C3)cc1 (stereo not given)
    3, -1, ·, -4, 2, 12, ·, -7
CC(=O)c1cccc(NC(=S)Nc2ccn(Cc3cccc4ccccc34)n2)c1
    1, -6, i, -2, -20, 16, ·, -2
Cc1cc(NC(=O)Cc2ccc(Br)cc2)no1
    1, 0, i, 0, 1, -41, -2, -1
CN(CC(=O)Nc1ccc(Cl)c(S(=O)(=O)N(C)C)c1)Cc1ccccc1
    1, -3, i, 0, -7, -24, -18, 4
COc1ccc(-c2c(C)nn3c(Cl)c(C)c(C)nc23)cc1
    1, 0, i, -3, -6, 6, -7, -13
O=c1[nH]c2c(s1)C(c1cccnc1)C1C3CCC(C3)C1S2 (stereo not given)
    2, 1, i, -5, 0, ·, ·, -6
Cc1ccc(-n2nnc3c(=O)n(Cc4ccccc4C)cnc32)cc1
    0, 1, i, 2, -5, -18, -22, -2
CCn1ccnc1[C@@H]1C[C@H]2CN(Cc3cccc(Cl)c3)C(=O)[C@]23CCCN13
    -2, 3, i, -5, -10, -9, -20, -3
C[C@H](NC(=O)c1ccco1)C(=O)N1CCN(c2ccc(C(F)(F)F)cn2)CC1
    2, -4, ·, ·, -18, ·, -4, ·
O=C(Cc1ccc(F)cc1)Nc1cccc(-c2ccc3nncn3n2)c1
    5, 0, ·, -4, -12, 10, ·, -3
Cc1ccc(-n2c3c(cc(C(=O)NCCCN4CCOCC4)c2=O)C(=O)CC(C)(C)C3)cc1
    0, 8, i, 2, 6, -15, -2, -5
CCC(Sc1nc2sc(C(=O)OC)c(C)c2c(=O)n1N)C(=O)NCC1CCCO1 (stereo not given)
    6, 0, i, 0, ·, 21, -21, 6
COc1ccc(N2CCN(C(=O)Nc3ccccc3Cl)CC2)cc1
    -3, -2, i, 1, 1, 17, ·, 3
Nc1ccc(-n2nncc2-c2ccco2)cc1
    -2, 0, i, 2, -1, -9, -6, 35
COc1ccc(NC(=O)c2cc(NC(=O)C3CCCCC3C(=O)O)ccc2N2CCOCC2)cc1 (stereo not given)
    3, 2, i, -7, -5, -3, 7, -4
CCOC(=O)N1CCN(C(=O)CSc2nc3c(cnn3-c3ccc(Cl)cc3)c(=O)[nH]2)CC1
    6, -3, i, -1, 1, -15, -2, -7
COc1ccc(N=C2C=CC(=O)O2)cc1
    2, 4, ·, ·, ·, -13, -8, ·
O=C(CSc1ncn[nH]1)Nc1ccc(Br)cc1F
    4, 2, i, -6, -4, ·, ·, -4

3 entries out of the list, arranged by molar mass, highest first.
SMILES	MT1-MMP act inh	MT1-MMP act inh RFP	Rce1 inh	PABP polyA inh	CSC inhib	Env fusion inh	UUG fidelity	eIF4H FP inh
Cc1ccc(-n2c3c(cc(C(=O)NCCCN4CCOCC4)c2=O)C(=O)CC(C)(C)C3)cc1	0	8	i	2	6	-15	-2	-5
CC(=O)c1cccc(NC(=S)Nc2ccn(Cc3cccc4ccccc34)n2)c1	1	-6	i	-2	-20	16	·	-2
Cc1ccc(-n2nnc3c(=O)n(Cc4ccccc4C)cnc32)cc1	0	1	i	2	-5	-18	-22	-2

Remaining list, next part:
SMILES	MT1-MMP act inh	MT1-MMP act inh RFP	Rce1 inh	PABP polyA inh	CSC inhib	Env fusion inh	UUG fidelity	eIF4H FP inh
Cc1c(C(=O)c2ccccc2)oc2ccc3ccccc3c12	0	1	i	2	23	-108	-32	-2
CC(NC(=O)CCSc1nc(-c2ccco2)cc(C(F)(F)F)n1)c1ccccc1 (stereo not given)	-12	-1	i	14	·	16	-4	14
Clc1cnc(N/N=C/c2ccncc2)c(Cl)c1	-1	5	i	0	1	-12	-16	-6
Cc1ccc(Nc2nc3nonc3[nH]c2=O)cc1Cl	-6	-25	i	-13	2	25	3	2
CCOC(=O)c1csc(NC(=O)c2ccc(S(=O)(=O)N3CCCC3)cc2)n1	-6	-15	i	-6	1	·	-5	-9
N#CCCN1CCCN(CCC#N)CCN(CCC#N)CCCN(CCC#N)CC1	-1	-1	i	12	-15	2	-23	6
O=C(COC(=O)CCNS(=O)(=O)c1ccccc1F)Nc1nnc(-c2ccccc2)o1	-3	1	i	·	-11	10	-26	·
CNc1[nH]ncc1[N+](=O)[O-]	-3	-1	i	3	-4	2	·	-8
COc1ccccc1NCC(=O)NN=C1CCS(=O)(=O)c2ccc(F)cc21	1	1	·	·	-10	2	-14	·
O=c1[nH]cc(-c2ccccc2)c(=O)[nH]1	·	·	i	-2	-3	-14	-20	10
O=C(CSc1nnnn1-c1ccccc1)Nc1nsc(-c2ccccc2)n1	0	-1	i	-1	1	25	-15	-7
CCn1c(=S)sc2c(=O)n(CC(=O)Nc3ccccc3OC)c(C)nc21	5	0	i	-1	-14	6	·	-2
O=C(Oc1ccc(-c2cnc3ccccc3n2)cc1)c1cc([N+](=O)[O-])ccc1Cl	4	1	i	13	11	·	-24	11
COc1ccccc1/C=N/NC(=O)NC12CC3CC(CC(C3)C1)C2	1	1	i	5	-1	2	-4	0
CC(=O)Nc1ccc(C(=O)N2CCOCC2c2cc(C(=O)NCc3ccccc3)no2)cc1 (stereo not given)	0	3	·	·	·	-21	-16	·
COc1ccc(-c2nc(CN3CCN(c4ccccc4OC)CC3)c(C)o2)cc1	1	-3	i	-4	3	9	·	2
CS(=O)(=O)c1cccc(C(=O)Nc2ccc(-c3nc4ccccc4[nH]3)cc2)c1	-3	-2	i	-3	20	-34	-12	-4
O=C(Cn1c(=O)oc2cc(S(=O)(=O)N3CCCC3)ccc21)Nc1ccc(C(F)(F)F)cc1	11	7	i	-24	-6	·	·	-17
CC1c2cc3c(cc2CCN1C(=O)c1cccc(Cl)c1)OCCCO3 (stereo not given)	-5	-6	i	8	36	17	-9	12
Cc1nn(C(=O)Cn2ccc([N+](=O)[O-])n2)c(C)c1Br	4	3	i	9	8	·	-17	-5
O=S(=O)(/C=C/c1ccccc1)N1CCN(c2ccccc2)CC1	3	0	i	6	-6	·	-7	-12
COc1cccc(NC2=C(NCCO)C(=O)c3ccccc3C2=O)c1	0	2	i	12	4	13	-10	17
O=C(O)CNC(=O)c1nc(-c2ccccc2)n(-c2ccccc2)n1	1	4	i	6	-1	-4	·	1
CCn1c(/C=C/c2ccccc2C)nc2ccccc2c1=O	6	-6	i	0	4	-5	6	-4
CCCc1cc(=O)oc2cc(OCC(=O)Nc3ccccn3)ccc12	4	3	i	·	-2	-25	-8	·
COc1ccc(Cl)cc1Nc1nc(NCCO)nc(N2CCCCC2)n1	2	0	i	·	16	-2	-10	·
O=S(=O)(Nc1ccc2c(c1)nc1n2CCOC1)c1ccccc1	4	2	i	-3	-8	-53	1	-2
O=C(O)c1ccc2ncsc2c1	8	-1	i	7	-12	-22	·	-5
Cc1cccc(/C(N)=N/OC(=O)c2ccc(Cl)cc2Cl)c1	-1	-1	i	-17	-16	-148	·	-20
COc1cccc2oc(-c3ccco3)cc(=O)c12	-4	1	i	4	30	-52	0	22
CC(=O)C[C@H]1c2cc(C(F)(F)F)ccc2S(=O)(=O)N1c1ccccc1	1	0	i	·	5	-1	-17	·
CCCCNC(=O)C1(C)CCCCN1C(=O)c1oc2ccccc2c1C (stereo not given)	0	0	·	·	·	-11	-7	·
Cc1cccc(C)c1NC(=O)COc1ccc2c(C)c(Cc3ccccc3)c(=O)oc2c1	2	-13	i	5	3	·	-17	1
O=C1CC(c2ccco2)CC(O)=C1C=NCCN1CCN(C(=O)Nc2ccc(Cl)cc2)CC1 (stereo not given)	4	3	i	?	-11	9	·	?
O=C(CCCN1C(=O)c2ccccc2C1=O)Nc1nccs1	0	4	i	8	-4	·	-5	5

Only part of the results is shown. The share of hits here may be higher or lower than overall.
